RE007 growth inh – less growth of the S. pombe RE007 Vpr strain. S. pombe RE007 Vpr strain, BacTiter-Glo ATP luminescence, 24 h; control for the full effect not named in the record. Potency, µM (top dose mostly 92.2 µM), for the others: top-dose activity change, negative = less growth. hit rate 0.21% among 360,000; active = well fitted falling curve with a large enough effect; inconclusive = small, poorly fitted or top-dose-only effect; inactive = no such curve, though single readings can be large or run the other way;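 also: % is scaled to controls: 0 for no effect and ±100 for the full control effect; nearly all actives have a fitted effect of over 50% in size; the assay follows cell death caused by Vpr and the record does not say whether a fall means rescue or toxicity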
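Fission yeast RE007 carrying one integrated HIV-1 vpr copy, seeded at OD 0.01 in PMG+AL medium with 23 nL pinned compound. Grown 24 h at 30 degrees; viability read by BacTiter-Glo luminescence after 5 min.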
NS1 function inh – inhibitors of influenza NS1 protein function; S. cerevisiae slowed by influenza A NS1, growth recovery by OD600; Potency, µM (titrated, usually from 46.1 µM), without a hit: at the highest dose activity, positive = more growth; hit rate 0.4% among 270,000; AID 2326; active means well fitted rising curve with a large enough effect; inconclusive means small, poorly fitted or top-dose-only effect; inactive means no such curve, though single readings can be large or run the other way; also: nearly all actives have a fitted effect of over 50% in size
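A cell-based growth assay was used: compounds that relieve NS1-induced slow growth of budding yeast raise OD600. Assay medium was yeast nitrogen base with ammonium sulphate and -URA supplement, pH 6.0, with 2% galactose.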
SARS PLP yeast – blocks SARS-CoV papain-like protease in a yeast assay | S. cerevisiae expressing SARS-CoV PLpro, growth rescue; control for the full effect not named in the record | Potency, µM (titrated, usually from 32.9 µM), without a hit: top-dose activity, positive = growth rescue | hit rate 0.19% among 330,000; active means well fitted rising curve with a large enough effect; inconclusive means small, poorly fitted or top-dose-only effect; inactive means no such curve, though single readings can be large or run the other way; also: 0% is about no effect; nearly all actives have a fitted effect of over 55% in size; growth read by luminescence after 48 h
2A StopGo – lowers the luciferase signal of an FMDV 2A StopGo reporter | hit rate 1.2% among 410,000 | human cells with a luciferase reporter of 2A StopGo recoding; control for the full effect not named in the record | Potency, µM (top dose mostly 57.9 µM), inactives show at the highest dose signal change, negative = less light; active = well fitted falling curve with a large enough effect; inconclusive = small, poorly fitted or top-dose-only effect; inactive = no such curve, though single readings can be large or run the other way; tested in HEK293T cells; also: % is scaled to controls: 0 for no effect and ±100 for the full control effect; nearly all actives have a fitted effect of over 45% in size; luciferase light after 4 h
MARV entry inh – Marburg virus entry inhibition | Marburg virus pseudotyped entry inhibition, cell reporter; control for the full effect not named in the record; about a third of the inactives were read at about 46 µM | Potency, µM (highest dose often 37.8 µM), for the others: top-dose activity change, negative = inhibition, usual class: inhibitors | hit rate 1.8% among 300,000; active = well fitted inhibition curve with a large enough effect; inconclusive = small, poorly fitted or top-dose-only effect, or effect the other way; inactive = flat fitted curve, though single readings scatter; tested in HEK293 cells; about a fifth of its hits are not listed in these tables; also: % is scaled to controls: 0 for no effect and ±100 for the full control effect; luciferase read-out
Cruzain inh noDet – cruzain (T. cruzi) inhibition without detergent; Potency, µM, without a hit: max response, negative = inhibition, usual class: inhibitors; purified cruzain, Z-FR-AMC fluorescence, no detergent; hit rate 2.3% among 200,000; AID 1476;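 also: plate controls were enzyme without inhibitor for no effect and buffer without enzyme for full effect; nearly all actives have a fitted effect of over 40% in size; top concentration of the series not given in the record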
Target sequence (P25779 123-467 limits assumed): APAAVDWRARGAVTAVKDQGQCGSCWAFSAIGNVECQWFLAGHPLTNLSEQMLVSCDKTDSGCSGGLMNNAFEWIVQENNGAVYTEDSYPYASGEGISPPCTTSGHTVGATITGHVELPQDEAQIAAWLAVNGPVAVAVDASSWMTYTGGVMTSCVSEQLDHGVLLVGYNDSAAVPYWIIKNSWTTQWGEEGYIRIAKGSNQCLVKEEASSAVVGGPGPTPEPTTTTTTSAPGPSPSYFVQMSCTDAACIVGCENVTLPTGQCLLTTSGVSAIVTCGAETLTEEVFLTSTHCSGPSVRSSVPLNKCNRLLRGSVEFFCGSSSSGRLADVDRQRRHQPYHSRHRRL
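Detergent-free condition (0.00005% Triton X-100) in acetate buffer pH 5.5 with DTT. 1.5 nM enzyme and compound were pre-mixed 15 min, then 2 uM Z-FR-AMC substrate added; reaction progress from fluorescence change between first and third reads (60 s).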
LASV entry inh – inhibitors of Lassa virus binding or cell entry | Lassa virus pseudotype entry inhibition, cell reporter; control for the full effect not named in the record | Potency, µM (highest dose often 37.9 µM), inactives show at the highest dose activity change, negative = inhibition, actives largely listed as inhibitors | hit rate 1.2% among 300,000 | AID 540256; active means well fitted inhibition curve with a large enough effect; inconclusive means small, poorly fitted or top-dose-only effect, or effect the other way; inactive means flat fitted curve, though single readings scatter; tested in HEK293 cells; also: % is scaled to controls: 0 for no effect and ±100 for the full control effect; nearly all actives have a fitted effect of over 50% in size; luciferase read-out
Cruzain inh Det – inhibitors of Trypanosoma cruzi cruzain with detergent; Potency, µM, for the others: max response, negative = inhibition, actives largely listed as inhibitors; hit rate 0.43% among 200,000; P25779; purified cruzain, Z-FR-AMC fluorescence, 0.01% Triton;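 also: plate controls were neutral wells for no effect and buffer without enzyme for full effect; nearly all actives have a fitted effect of over 40% in size; top concentration of the series not given in the record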
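In this qHTS format, compounds are incubated with 1.5 nM cruzain for 15 min at room temperature before 2 uM Z-FR-AMC is added. Release of AMC is followed at 360/450 nm, and progress is taken as the 60 s fluorescence difference.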
* hit, by the source's call; ? = inconclusive; / = no result given; & = joins results of further samples; [ ] = remark or other dose. Unless noted, calls follow the shape of the dose curve; as a rule, active = well fitted curve in the direction sought with a large enough effect; inconclusive = small, poorly fitted or top-dose-only effect, or another doubt; inactive = no such curve, though single readings can be large; an effect the other way counts as inactive or inconclusive. Potency is read from the fitted curve at half-maximal effect.

SMILES | RE007 growth inh | NS1 function inh | SARS PLP yeast | 2A StopGo | MARV entry inh | Cruzain inh noDet | LASV entry inh | Cruzain inh Det
CCCOC(=O)C1[C@H]2C(=O)N(CC3CCCO3)C[C@]23C=C[C@H]1O3 (some centres undefined) | -10% | 18% | 5% | -25% | 11% | ? | -5% | -0.3%
O=C(NCCC1=CCCCC1)C(=O)NCc1ccccc1 | 1% | 7% | 11% | 32%[activator] | -7% | ? | 9% | 4.7%
CC(c1ccccc1)n1c(SCC(=O)Nc2ccccc2)n[nH]c1=O (centres undefined) | 0% | -3% | 1% | ? | ? | / | -17%[46.1 µM] | /
Cc1cc(-c2ccccc2)nc(N(C)NC(=O)C(C)(C)C)c1S(C)(=O)=O | 4% | / | 0% | -9% | 6%[14.2 µM] | / | -21% | /
CC/S(=N\S(=O)(=O)c1ccc(C)cc1)c1ccccc1 (centres undefined) | 4% | 0% | -1% | -6% | / | / | / | /
CCC(C)NC(=O)CSc1nc2scc(-c3ccccc3)c2c(=O)[nH]1 (centres undefined) | 6% | 5% | 18% | -10% | -10% | -21% | -6% | -4.4%
COc1cccc2cc(C(=O)Nc3ccc(CC(=O)O)cc3)c(=O)oc12 | / | / | / | ? | 10µM* | -14% | ? | -3.1%
O=C(Nc1ccc(F)cc1F)c1cnn(-c2ccc(F)cc2)c1-n1cccc1 | / | / | / | -12% | / | -24% | -10%[46.1 µM] | -1.6%
COc1ccc(Cl)cc1NC(=O)C1Cc2ccccc2CN1S(C)(=O)=O (centres undefined) | 1% | 18% | -4% | -9% | -18%[46.1 µM] | / | 10% | /
CC(CNC(=O)c1ccc(C#N)cc1)NC(=O)c1ccc(C#N)cc1 (centres undefined) | 13% | 5% | 2% | -4% | 19% | / | 17% | /
C/C(Nc1ccccc1)=C(/C#N)C(N)=O | 3% | -2% | -5% | -15% | 2% | -3% | 0% | -0.2%
O=c1[nH]c2ccccc2nc1/C=C(\O)C(F)F | ? | ? | -10% | -8% | ? | 10% | 21% | -3.9%
Cc1noc2ncnc(N3CCCC(C(=O)Nc4cccc(C(F)(F)F)c4)C3)c12 (centres undefined) | / | / | / | 0% | / | 7% | -7%[46.1 µM] | -5.3%
CSCCC(NC(=O)c1ccc(Cl)cc1Cl)C(=O)OCC(N)=O (centres undefined) | 17% | ? | -7% | -4% | -1% | / | -5% | /
CCOP(=O)(OCC)C(NC(=O)NC)C(N)=O (centres undefined) | 0% | 1% | 0% | 2% | -1%[46.1 µM] | / | 0%[46.1 µM] | /
COc1cccc2sc(Nc3nc(-c4cc5ccccc5oc4=O)cs3)nc12 | -11% | 12% | -5% | -20% | -7% | 4% | ? | -7.9%
COc1ccc(-n2ccn3c(CCC(=O)N4CCN(c5cccc(C)c5C)CC4)nnc3c2=O)cc1 | -4% | 5% | 0% | -4% | / | / | / | /
O=C(C1CC1)N1CCN=C1SCc1ccccc1Cl | -5% | -80% | -10% | -3% | / | 2% | / | 4.4%
Cc1cc(NC(=O)CC(C)C)c(=O)n(Cc2cccc(F)c2)c1 | -8% | -3% | 3% | -5% | / | / | / | /
O=[N+]([O-])c1cc(S(=O)(=O)N2CCCCCC2)ccc1Cl | -4% | -5% | -2% | -27% | ? | / | ? | /
CCCCSc1nnc(CNC(=O)C23CC4CC(CC(C4)C2)C3)n1Cc1ccccc1 | 4% | -29% | 18% | ? | ? | 1% | -30% | -4.6%
CCOc1cccc(CNn2cnnc2)c1OCc1ccccc1Cl | -2% | 10% | -6% | ? | -10% | -5% | -19% | -1.4%
C/C(=N\NC1=NCCN1)c1ccc(Cl)cc1 | -6% | -6% | -2% | 18% | ? | / | ? | /
COc1ccccc1NC(=O)C(C)OC(=O)CC1CCCC1 (centres undefined) | 0% | -15% | ? | -2% | / | / | / | /
CC(C)Cc1cc(C(=O)N2CCCC(CO)(Cc3ccc(F)cc3F)C2)n[nH]1 (centres undefined) | 0% | -1% | -4% | -3% | / | / | / | /
O=C(CSc1nc2ccccc2nc1SCC(=O)N1CCOCC1)N1CCOCC1 | -8% | 13% | -2% | -27% | -13%&-13%&-13% | -10% | -12% | -3.7%
COc1cc2c(cc1OC)CN(C(=S)Nc1ccc(Cl)cc1)CC2 | 9% | 0% | 0% | 11% | / | / | / | /
COc1ccc(CNC(=O)Cc2c(C)c3cc4c(C)coc4c(C)c3oc2=O)cc1OC | / | / | / | -12% | 7%[46.1 µM] | 14% | ? | -1.5%
O=C(N/N=C\c1coc2ccccc2c1=O)c1ccco1 | 4% | 1% | 0% | 7% | -6%[14.2 µM] | / | 9% | /
O=[N+]([O-])c1ncn(Cc2ccccc2Cl)n1 | -8% | 5% | -6% | -25% | 7% | 6% | 13% | -0.2%
O=C(O)CC(c1cccc(Cl)c1)n1cccc1 (centres undefined) | 1% | 7% | 13% | 11% | 1% | -5% | 0% | 0.7%
C=CCOc1ccc(/C=C2\SC(N3CCCCC3)=NC2=O)cc1 | 16% | -2% | -7% | 10% | 18%[46.1 µM] | / | ? | /
Cc1ccc2nc(SCC(=O)N3CCCc4ccccc43)nc(=O)n2c1 | 17% | / | / | -14% | 13% | / | 1% | /
Nc1ccc2c(c1)C(=O)c1ccc(N)cc1-2 | -13% | / | / | 23% | 0%[46.1 µM] | / | -13%[46.1 µM] | /
COc1ccc(NC(=O)CSc2ccc3nnc(-c4ccccn4)n3n2)cc1 | 2% | 5% | -1% | 2% | -8% | / | -1% | /
CC(=O)C1=C(Nc2ccc(C)cc2)CC(C)(O)C(C(C)=O)C1c1ccco1 (centres undefined) | -7% | -2% | 2% | -2% | 2% | -7% | 15% | 1.5%
COc1ccc(-c2cc(C(=O)NN)[nH]n2)cc1 | -2% | 22% | -27% | 31%[activator] | -30% | 6% | 23% | -1.9%
O=C(Nc1ccc2c(c1)OCO2)N1CCN(C/C=C/c2ccccc2)CC1 | 12% | -12% | 23% | 0% | 13% | -1% | 19%[14.3 µM] | -1.7%
COc1cc(OC)cc(C(=O)N[C@H](C(=O)OCC(=O)c2ccc(C)c([N+](=O)[O-])c2)C(C)C)c1 | 11% | / | -10% | 5% | 16% | / | 6% | /
Cc1ccc(OCc2nnc(SCC(=O)Nc3ccc(N4CCOCC4)cc3)o2)cc1 | -7% | 10% | 15% | 0% | 18%[46.1 µM] | / | -7% | /
COc1ccc(NC(=O)CN(c2ccccc2F)S(=O)(=O)c2ccc(C)cc2)c(OC)c1 | -4% | 6% | 0% | 1% | / | / | / | /
COc1cccc(N2CCN(C(=S)Nc3ccccc3OC)CC2)c1 | 1% | 14% | 2% | 0% | 15% | / | ? | /
CCCCNC(=O)COC(=O)c1c2c(nc3ccccc13)/C(=C\c1cccs1)CC2 | 9% | / | / | 33%[activator] | ? | / | ? | /
Cc1cc(/C=N/NC(=O)CC#N)c(C)n1-c1ccc([N+](=O)[O-])cc1 | 3% | 8% | -2% | -14% | -13% | / | -3% | /
Cc1cccc(NC(=O)Cn2c(=O)n(CCCCCC(=O)NCc3ccccc3)c(=O)c3sccc32)c1 | / | / | / | 0% | ? | -9% | -11%[46.1 µM] | -2.9%
Cc1cccc(C)c1OCC(O)CN1CCN(c2ccccc2)CC1 (centres undefined) | -3% | -2% | -1% | -16% | ? | / | 10%[46.1 µM] | /
CCCC(=O)Nc1nnc(Sc2ccc(N(C)C)cc2)s1 | 3% | 3% | 5% | 6% | 19% | ? | -9% | 5.0%
O=C(CSc1nccc(=O)[nH]1)Nc1ccc(Br)c(Cl)c1 | 2% | -1% | -2% | -8% | -8% | -8% | -12% | -11%
O=C1C(=O)N(Cc2cccnc2)C(c2cccc(O)c2)/C1=C(\O)c1ccc2c(c1)OCCO2 (centres undefined) | -6% | 7% | 6% | -6% | / | / | / | /
Cc1ccc(S(=O)(=O)N2CCC(C(=O)N3CCC[C@H]3C(=O)NCc3ccco3)CC2)cc1 | 19% | 3% | 2% | 10% | -10% | 5% | 4% | 2.3%
Following part.
SMILES | RE007 growth inh | NS1 function inh | SARS PLP yeast | 2A StopGo | MARV entry inh | Cruzain inh noDet | LASV entry inh | Cruzain inh Det
CC1(C(=O)OCC(=O)NC(=O)NCc2ccccc2)CC1(Cl)Cl (centres undefined) | 8% | / | 0% | -7% | 3%[46.1 µM] | / | / | /
Cc1nc(-c2ccc(C(=O)Nc3cccc(F)c3)cc2)cs1 | -18% | 5% | -7% | ? | 5µM* | / | / | /
O=c1ccc2cc3c([nH]c4ccc(Br)cc43)oc-2c1O | / | ? | -1% | / | 0% | -1% | / | -9.0%
COc1ccc(N2CC(C(=O)Nc3cc(C(F)(F)F)ccc3N3CCCC3)CC2=O)c(OC)c1 (centres undefined) | -6% | / | -1% | -19% | ? | / | ? | /
Cc1cccc(C(=O)c2cnc3ccccc3c2-c2ccccc2)c1 | 7% | -101% | -43% | ? | ? | -5% | -5% | -0.9%
COc1ccc(-c2noc(CSc3nnc(-c4ccccc4)n3-c3ccc(F)cc3)n2)c(OC)c1 | / | / | / | 0% | ? | 8% | ? | -3.9%
O=C(OCC(=O)N1CCN(c2ccccc2)CC1)c1cc(Cl)ccc1[N+](=O)[O-] | -10% | -8% | -5% | -22% | 18% | / | -2% | /
CCOc1ccc(-c2nc(C#N)c(NCc3ccc4c(c3)OCO4)o2)cc1 | 15% | 0% | 3% | 44%[activator] | 9% | 8% | 4% | -6.2%
COc1ccc(S(=O)(=O)N(CCc2ccccc2)CC(=O)NCCCO)cc1 | 9% | -1% | 0% | / | 13% | 7% | -23% | -0.5%
Cc1ccc(C(C(=O)NC(C)(C)C)N(Cc2ccccc2)C(=O)c2snc(C(N)=O)c2N)o1 (centres undefined) | 1% | / | -6% | -6% | ? | / | -9% | /
NC(=O)/C=C\C(=O)Nc1cccc(C(F)(F)F)c1 | 18µM* | -243% | -53% | / | 9.2µM* | 3% | ? | 5.9%
Clc1ccc(OCc2nn3c(C4CCCCC4)nnc3s2)cc1 | 1% | -122% | -11% | -5% | 21% | -10% | -1% | -2.0%
CC#CC(=O)N1CCCC(C(=O)c2ccc(SC)cc2)C1 (centres undefined) | 3% | -7% | 1% | -7% | / | / | / | /
O=C(Nc1cccc(S(=O)(=O)N2CCOCC2)c1)c1cc2c(s1)CCC2 | -2% | 10% | -1% | 0% | -10% | 11% | -4% | -3.4%

Screens: PubChem BioAssay, National Center for Advancing Translational Sciences (NCATS)
